# Bioassay records as filed in PubChem BioAssay.
# T cruzi repl: blocks replication of Trypanosoma cruzi; 300,000 compounds, 1.4% hits; inhibition, % (no concentration beside the values); T. cruzi beta-gal in NIH3T3, luminescence, 90 h;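 active = mean inhibition across valid replicates above about 55%, limit read from the data; inconclusive = mean below that limit but half or more replicates reach it; inactive = mean below it, under half of replicates reach it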;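 note: signal also drops with host cell toxicity which is not excluded here; 0% = plate median of DMSO wells and 100% = zero luminescence signal; higher percent means less beta-gal luminescence so fewer parasites; stock transfer was 50 nL into about 50 µL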
# Bfl-1 A1 inh: inhibitors of the anti-apoptotic protein A1, read as caspase activation; MEF A1-2A-BIM cells, Caspase-Glo 3/7 luminescence, 3 h; percent of clofoctol response, vehicle zero; caspase activation, % (test concentration not listed); 330,000 compounds, 0.066% hits;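 active = over half of replicate activation scores above 10%, or exactly half above 10 with the replicate mean above 10; inconclusive = replicate mean below 10 yet half the replicates above 10; inactive = over half of replicates below 10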;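 note: wells of about 30 µL received 50 nL stock; many hits fall short of the cut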
# AF4-AF9 inh: blocks AF4 peptide binding to human AF9; AlphaScreen, biotin-AF4 peptide binding to FLAG-AF9; inhibition, % at 10 µM; 350,000 compounds, 0.47% hits;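 active = every replicate reaching a set inhibition limit, whatever the replicate mean, cut at about 25% in these data; inconclusive = mean inhibition reaches that limit but some replicates miss it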;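 note: 0% = plate neutral control median and 100% = total signal loss; the record names both 10 and 1 µM as test concentration; the first replicate is given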
# Target sequence (P42568 whole entry, looked up): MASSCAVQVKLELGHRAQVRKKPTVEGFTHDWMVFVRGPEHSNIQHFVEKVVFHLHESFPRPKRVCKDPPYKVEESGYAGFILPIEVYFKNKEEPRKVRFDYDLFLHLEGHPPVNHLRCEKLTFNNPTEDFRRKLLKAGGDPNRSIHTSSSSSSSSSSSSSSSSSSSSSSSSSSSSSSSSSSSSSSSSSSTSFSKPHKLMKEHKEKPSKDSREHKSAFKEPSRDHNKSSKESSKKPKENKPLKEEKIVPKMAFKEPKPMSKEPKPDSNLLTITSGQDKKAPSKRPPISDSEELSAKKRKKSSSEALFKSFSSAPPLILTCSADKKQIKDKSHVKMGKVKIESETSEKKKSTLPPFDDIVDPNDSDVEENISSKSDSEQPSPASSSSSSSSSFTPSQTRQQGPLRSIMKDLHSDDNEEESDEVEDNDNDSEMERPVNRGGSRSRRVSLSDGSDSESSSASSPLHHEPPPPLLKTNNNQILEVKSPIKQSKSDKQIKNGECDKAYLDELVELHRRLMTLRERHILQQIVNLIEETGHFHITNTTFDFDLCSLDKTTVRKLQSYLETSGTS
# rRNA inh HTS: selective bacterial rRNA inhibition in E. coli. E. coli WT GFP vs humanized-ribosome RFP mutants, fluorescence, 24 h; stronger effect = lower value; DMSO median 0, no signal -100. GFP signal change (wild-type ribosome), % (concentration not given with the values). 350,000 compounds, 1.6% hits. AID 720706;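 active = significant combined selectivity score with lowered wild-type GFP, culture density cut under 30%, mutant RFP and density less affected; inactive = any of these conditions unmet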; note: one replicate is shown; some compounds called inactive have numbers as strong as hits
# Calb FLC: C. albicans growth modulation with fluconazole; C. albicans CaCi-2 (fluconazole-resistant clinical isolate) + fluconazole, Alamar Blue growth, 48 h; growth inhibition, % (concentration not given with the values); 300,000 compounds, 0.57% hits; AID 1979;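 active = most replicates above 75%; inconclusive = exactly half above 75%; inactive = most below 75%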;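 note: all wells also contain fluconazole at 8 µg/ml as a sub-toxic cotreatment; 0% = median of DMSO wells and 100% = median of geldanamycin control wells; wells of about 8 µL received 7.5 nL stock; the first replicate is given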
# Beta cell apopt: blocks beta cell apoptosis | 300,000 compounds, 0.8% hits | INS-1E cytokine-induced death, ATP luminescence, 48 h; percent of positive-control rescue, neutral wells zero | protection from apoptosis, % (concentration not given with the values);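 active = all replicates at 75% or more, or half of them and the mean; inconclusive = half reach 75% but not the mean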;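 note: 0% = cytokine-treated negative control wells and 100% = positive control rescue; higher means more ATP so stronger rescue from cytokine killing; wells of about 40 µL received 100 nL stock; the first replicate is given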
# RanGTP-Impb inh: disruptors of Ran-importin-beta complex formation – biochemical, FRET, CFP-Ran, YFP-importin-beta, homogeneous, primary screen; cell-free CFP-Ran/YFP-importin-beta FRET ratio; inhibition, % (concentration not given with the values); 300,000 compounds, 1.1% hits; AID 2216;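 active = most replicates above 15%; inconclusive = exactly half above 15%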;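 note: 0% = DMSO wells and 100% = Ran loaded with GDP instead of GTP; wells of about 40 µL received 100 nL stock; the first replicate is given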
# Vif TR-FRET: inhibitors of Vif binding to APOBEC3G peptide, primary screen, biochemical, TR-FRET, GST-Vif 1-94, biotin-A3G peptide, dose response retest (AID 1117319). TR-FRET GST-Vif / biotin-A3G peptide binding; higher % means a stronger effect; test concentration not given here; strong numbers were not always called active. inhibition, %, or IC50 in µM where a hit was titrated. 260,000 compounds, 0.57% hits;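 active = above the screen mean plus three standard deviations and confirmed in dose response; inconclusive = results disagree or hit not tested in dose response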;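 note: Vif residues 1-94 fused to GST binding biotinylated APOBEC3G peptide 110-148; 0% = full assay without inhibitor and 100% = GST in place of GST-Vif; retest series ran down from 100 µM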
# rRNA inh HTS OD600: also measured in rRNA inh HTS; calls as there; OD600 change, %; measured here: OD600 growth;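 optical density of the mix in the first replicate; 0 = DMSO median and -100 = no signal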
# rRNA inh HTS RFP: recorded beside rRNA inh HTS, whose call it bears; RFP signal change, %; measured here: RFP humanized mutant strains;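 first replicate; 0 = DMSO median and -100 = no signal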
# An asterisk follows results filed as active; ? = inconclusive; · = not tested or not shown; & = joins results of further samples.
# Every second line gives: Bfl-1 A1 inh	Calb FLC	rRNA inh HTS OD600	Vif TR-FRET	AF4-AF9 inh	Beta cell apopt	T cruzi repl	rRNA inh HTS RFP	RanGTP-Impb inh	rRNA inh HTS
- N=c1c(C(=O)NC2CCCCC2)cc2c(=O)n3ccccc3nc2n1CC1CCCO1 (stereo not given)
    -0.4	-19	9	·	0.8	3	17	-3.5	171*	2
- CCN(CC)S(=O)(=O)c1cccc(-c2n[nH]c(=S)n2Cc2ccccc2)c1
    0.0	5	-24	-5%	-8.1	4	-1	-1.1	-2.2	-12
- COc1cc(Cl)ccc1OCc1cc(C(=O)N(C)CC2CCCCO2)no1 (stereo not given)
    -1.4	0	-16	·	-2.8	-1	6	0.8	4.8	-11
- N#Cc1cc2c(ccc3ccccc32)oc1=O
    0.9	15	11	-32%	-25	2	-5	1.9	38*	4
- C=CCn1c(COc2ccccc2F)nnc1SCC(=O)Nc1cc2oc3ccccc3c2cc1OC
    1.1	-7	·	-7%&-1%	·	-1	25	·	-1.1	·
- COc1cccc(CN(C)Cc2cc(=O)oc3cc(O)c(Cl)cc23)c1
    1.4	1	-44	-7%	-2.6	0	-4	-12	77*	-26
- O=C(CSc1nnc(-c2ccco2)o1)NC(=O)Cc1ccccc1
    0.2	·	·	16%	·	-3	2	·	0.4	·
- COC(=O)c1ccc2[nH]cc(CCO)c2c1
    1.2	-3	11	·	-13	-6	-34	5.1	-0.7	3
- Cc1ccc(S(=O)(=O)NCC(=O)OCC(=O)Nc2ccc(C)c(S(=O)(=O)N3CCOCC3)c2)cc1
    -1.0	·	4	·	-5.0	-1	·	3.1	·	8
- CCc1ccc(NC(=O)N(CCCN2CCOCC2)C(C)c2cc3cccc(OC)c3o2)cc1 (stereo not given)
    0.4	-7	-14*	0%	·	0	-4	1.6*	0.8	-22*
- Cc1ccc(CNC(=O)CNC(=S)N(Cc2ccccc2)Cc2ccccc2F)cc1
    ·	4	-14*	4%	0.6	·	32	-0.9*	1.3	-30*
- Cc1ccc(C(=O)NC2CCCCCC2)o1
    -1.2	-9	·	-4%	·	-2	-10	·	3.9	·
- COc1ccc(NC(=O)N2CCCC(c3nc(-c4ccc(OC)cc4)no3)C2)cc1 (stereo not given)
    -0.7	17	-28	29%	-1.1	-1	1	-5.1	-2.7	-29
- COc1cc(OC)c(NC(=O)c2cccc(F)c2)cc1Cl
    0.1	3	·	-1%	·	0	1	·	0.7	·
- Cc1cc(C)c(C(=O)Cn2cnc3cc([N+](=O)[O-])ccc3c2=O)cc1C
    0.1	-3	-7	12%	1.5	-1	68*	-1.6	-0.3	9
- CS(=O)(=O)N(CC(=O)O)c1ccc(Oc2ccccc2)cc1
    -0.4	0	·	23%	·	-6	-3	·	-1.9	·
- Cc1ccc2[nH]c(=O)c(C3C(C#N)=C(N)Oc4c3ccc3cccnc43)cc2c1 (stereo not given)
    0.3	99*	·	24µM*	·	91*	-9	·	12	·
- COc1ccc(NC(=O)CCn2c(=S)[nH]c3ccccc3c2=O)cc1OC
    -1.0	-1	12	-2%	0.0	5	-12	-0.4	-1.4	5
- CCN(CC(=O)Nc1ccc2c(c1)CCC2)Cc1nc2ccccc2c(=O)[nH]1
    0.4	-15	·	4%	·	-4	2	·	-3.0	·
- Cc1ccc(S(=O)(=O)N2CCCCC2)cc1NC(=O)COC(=O)c1ccc(=O)[nH]c1
    0.5	·	4	-4%	-5.7	-9	·	0.3	·	2
- CC(=O)Nc1ccc(OCC(O)Cn2c(C)nc3ccccc32)cc1 (stereo not given)
    0.4	·	·	?	·	-5	-10	·	2.0	·
- O=C(Nc1ccccc1Cl)c1ccc(=O)[nH]n1
    1.3	58	5	0%	-1.5	-5	-5	-0.5	0.7	8
- Cc1nc(NCC2CCCO2)nc2c1C(=O)CC(C)(C)C2 (stereo not given)
    -0.2	1	5	2%	·	0	-22	-3.4	-1.5	3
- COc1ccc(C)cc1S(=O)(=O)Nc1ccc2c(c1)OCCO2
    0.3	-10	6	·	-5.0	-5	5	2.4	-0.9	6
- CCC1=NN(C(=O)Cc2ccc(OC)cc2)C(O)(C(F)(F)F)C1 (stereo not given)
    0.8	-6	8	-7%	-13	-6	1	-3.6	-1.1	-1
- Cc1ccc(SCC(=O)Nc2cccc(S(=O)(=O)N3CCOCC3)c2)cc1C
    -0.2	·	-38	-9%	5.2	-2	·	-7.9	·	-22
- O=C(c1ccccc1)c1cccc[n+]1[O-]
    1.0	-1	11	-4%	-6.1	-6	-13	0.1	0.4	14
- Cc1c(C(=O)C(=O)N2CC=C(c3ccccc3)CC2)c2ccccc2n1C
    0.0	?	·	·	·	-6	-13	·	4.1	·
- COc1ccccc1NC(=O)Nc1ccc(CC#N)cc1
    -4.6	-11	9	-3%	-2.6	-7	3	1.1	-2.1	-1
- CCN(CC)c1ccc(NC(=O)c2ccccc2OCC(=O)OC)cc1
    0.1	-11	-3	·	?	-2	-6	-0.1	-3.7	-4
- COc1ccc(OC)c(/C=N/NC(=O)C(=O)NCc2cccnc2)c1
    0.4	-13	-5	1%	-0.2	-5	-7	-1.8	-1.6	8
- O=C1CN(CC(=O)Nc2cccc(Cl)c2Cl)c2ccccc2N1
    -0.7	4	2	16%	·	-8	0	7.9	-1.6	-4
- Cc1ccc(C2C(C(=O)c3cccs3)=C(O)C(=O)N2c2ccc(S(N)(=O)=O)cc2)cc1 (stereo not given)
    0.9	3	6	·	-2.6	1	14	0.4	-5.7	3
- CCOc1ccc(NC(=O)CN(C)C(=O)CCCn2c(=O)oc3ccccc32)cc1OCC
    0.3	·	16	-5%	-4.2	-1	2	-1.5	-1.1	5
- Cc1cc(F)ccc1S(=O)(=O)N1CCCOC1CNC(=O)C(=O)NCCc1c[nH]c2ccccc12 (stereo not given)
    0.6	0	·	8%	·	-3	12	·	1.5	·
- CCOc1cccc(NC(=O)c2ccc(S(=O)(=O)N3CCCC3)cc2)c1
    0.5	5	-27	·	-6.6	-4	-11	-1.6	1.4	-15
- N#Cc1c(NC(=O)C2CC(c3c(F)cccc3Cl)=NO2)sc2c1CCC2 (stereo not given)
    0.7	5	·	·	·	-2	7	·	10	·
- COc1ccc(S(=O)(=O)N(C)CC(=O)Nc2ccc(C(N)=O)cc2)cc1OC
    -0.8	3	7	-4%	-3.3	-13	-4	1.9	3.9	8
- CCN(CC)S(=O)(=O)c1cccc(-c2nnc(SCC(=O)NC)n2N)c1
    0.2	-9	25	4%	-1.1	-5	1	0.7	-0.7	13
- Cc1ccccc1NC(=S)N1CCN(Cc2ccccc2)CC1
    0.1	4	3	·	-3.0	-3	-16	2.3	7.8	11
- O=C(NC1CCCCC1)C(c1ccncc1)N(C(=O)c1ccco1)c1ccc(F)cc1 (stereo not given)
    1.1	-25	1	-5%	-3.0	-3	-3	-1.6	?	-1
- Cc1ccc(N2C(=O)N(CC(=O)Nc3ccccc3C(F)(F)F)C(=O)C2C)cc1 (stereo not given)
    -0.3	·	0	·	1.8	0	·	1.6	·	-1
- CCC1=C(OC(=O)N(CC)CC)N2C(=O)OC(=NCC3CC3)[C@]2(Cc2ccccc2)[C@H]2C1=CC[C@H]1C(=O)N(C)C(=O)[C@H]12
    -0.1	21	-6	·	·	-1	7	2.1	-8.0	-2
- Cc1ccc(NC(=O)CSCC(=O)N2c3ccccc3CCc3ccccc32)cc1
    0.8	22	·	5%	·	4	21	·	0.4	·
- COc1ccc(S(=O)(=O)N(C)C[C@H]2Oc3c(NC(=O)Nc4ccc5c(c4)OCO5)cccc3C(=O)N([C@H](C)CO)C[C@@H]2C)cc1
    0.5	·	-13&-5	·	3.7&8.6	3	·	-2.7&-0.8	·	0&-6
- CCCc1cc(C(=O)Cc2ccc(C(=O)OCC)o2)c(O)cc1O
    -0.7	0	·	?	·	-1	-2	·	1.8	·
- CCOC(=O)C1=C(C)OC(N)=C(C#N)C1c1cc(C)sc1C (stereo not given)
    1.6	1	·	?	·	-1	-32	·	1.5	·
- CNC(=O)CSc1nnc(COc2ccc([N+](=O)[O-])cc2)n1C
    1.8	-14	24	·	-1.4	-4	12	1.6	-1.7	22
- Brc1cc(/C=N/n2cnnc2)oc1Br
    -1.1	3	5	4%	2.3	1	-17	-2.9	1.3	11
- COc1ccc(OCCCC(=O)Nc2cc(S(=O)(=O)N3CCCCC3)ccc2OC)cc1
    -0.9	·	0	-6%	2.4	2	·	-1.1	·	-2
- CSCCC(NC(=O)c1ccccc1Br)C(=O)NNC(=O)c1ccncc1 (stereo not given)
    0.2	·	13	·	1.1	-2	·	-2.0	·	8
- Cc1noc(C)c1CSCC(=O)Nc1cc(Cl)ccc1N1CCCCC1
    -1.0	-3	-31	4%	-1.9	-2	21	11	0.0	-12
- CC(=O)N/C(=C/c1ccc2c(c1)OCO2)C(=O)NCc1ccccc1
    -0.3	-3	2	9%	0.0	-4	-3	-0.6	6.0	11
- CCNC(=S)NCc1ccc(F)cc1
    0.4	2	5	·	-7.2	-8	-11	-2.8	-1.0	6
- O=C1NCCCC1C(=O)Nc1ccccn1 (stereo not given)
    1.0	-2	·	-7%	·	-6	0	·	?	·
- CC(C)(C)c1[nH]ncc1[N+](=O)[O-]
    -0.5	?	3	-2%	1.1	-8	-27	-2.5	0.9	3
- CC(CN1CCCCC1)NC(=O)c1cc(-c2ccccn2)nc2ccc(Cl)cc12 (stereo not given)
    -0.3	-1	10	32%	0.6	-1	-19	3.3	0.9	8
- CCCCN(C(=O)c1ccco1)c1nnc(-c2cc(OC)c(OC)c(OC)c2)s1
    -0.3	-11	·	6%	·	-1	8	·	-4.7	·
- CC(C)(C)NNC(=S)Nc1ccc(S(=O)(=O)N2CCOCC2)cc1
    0.5	-16	14	6%	-1.2	3	-1	0.6	5.7	24
- O=C(O)C1Nc2c(O)cc(Cl)c([N+](=O)[O-])c2C2C=CCC12 (stereo not given)
    -0.2	9	24	0.23µM*	18	6	-4	-9.5	-8.6	-15

# (more compounds)
# Every second line gives: Bfl-1 A1 inh	Calb FLC	rRNA inh HTS OD600	Vif TR-FRET	AF4-AF9 inh	Beta cell apopt	T cruzi repl	rRNA inh HTS RFP	RanGTP-Impb inh	rRNA inh HTS
- O=C(N/N=C/c1ccco1)C1CC1(c1ccccc1)c1ccccc1 (stereo not given)
    0.5	11	·	·	·	-7	-18	·	1.6	·
- CCOc1ccc(N2CC(NS(=O)(=O)c3cccnc3)CC2=O)cc1 (stereo not given)
    0.2	6	13	6%	1.8	·	-3	-1.6	-1.8	8
- C=CCC[C@H](Cc1ccc(F)cc1)C(=O)OC[C@H](Cc1c[nH]c2ccccc12)NC(=O)[C@@H](CC=C)CC(=O)N[C@@H](CO)Cc1ccccc1
    0.6	·	11	·	2.5	52	·	-3.5	·	7
- Cc1ccc(CNC(=O)c2cc(S(=O)(=O)N3CCOCC3)cn2C)cc1
    -0.5	4	-10	·	-11	-1	5	2.4	2.8	9

# Only part of the results is shown. The share of hits here may be higher or lower than overall.
